# CBX7 inh: CBX7 chromodomain binding inhibitors, primary screen, biochemical, AlphaScreen. Chromobox protein homolog 7 (Homo sapiens), O95931. AlphaScreen His6-CBX7 / biotin-H3K27me3 peptide binding; active compounds read low. normalised signal (fraction of DMSO) (concentration not given with the values). actives 1.1% (n = 66,000); in the data active = normalised signal below about 0.5;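 also: 100 nL library stock added to about 20 µL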
# Target sequence (O95931 whole entry, looked up): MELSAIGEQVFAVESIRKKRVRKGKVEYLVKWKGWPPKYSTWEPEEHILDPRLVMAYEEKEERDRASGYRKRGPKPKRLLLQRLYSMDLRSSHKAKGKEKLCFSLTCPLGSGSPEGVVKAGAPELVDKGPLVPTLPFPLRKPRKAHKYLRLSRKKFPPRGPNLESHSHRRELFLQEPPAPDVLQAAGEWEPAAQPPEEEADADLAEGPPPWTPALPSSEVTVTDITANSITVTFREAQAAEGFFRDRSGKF
# CBX7 inh z-score: second read-out of CBX7 inh, no call of its own (marks repeat the call); z-score; measured here: z-score of CBX7 signal; some inactives read as strong as hits; reference of the scale not given here;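 same signal on another scale; lower means less binding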
# * = called active by the depositor.
# Screens in order – CBX7 inh	CBX7 inh z-score
c1ccc(Cc2nc(N3CCCC3)c3c4c(sc3n2)CCCC4)cc1
→ 0.76	-2.4
COc1cc(C(=O)N2CC(=O)Nc3ccc(C)cc3C2c2ccccc2)cc(OC)c1OC (configuration not stated)
→ 0.94	-0.69
O=C(NCCc1ccc(Cl)cc1)c1cc(=O)[nH]c2ccccc12
→ 1.1	0.1
CC1CCN(c2c(NCc3ccc(C(=O)NC4CCCCCC4)cc3)c(=O)c2=O)CC1
→ 0.99	-0.057
Cc1cc(C)c(OCC(=O)Nc2c(C(=O)c3ccc(Br)cc3)oc3ccccc23)c(C)c1
→ 1.1	0.49
Cc1ccc(CCN2CC(C(=O)NCCN3CCCCCC3)CC2=O)cc1 (configuration not stated)
→ 1.2	3.3
Cc1nc2c(C(=O)NC3CCC(C)CC3)c[nH]n2c(=O)c1Cc1ccccc1F (configuration not stated)
→ 1.1	1.9
Cc1cc(C)n(Cc2ccccc2F)c(=O)c1C#N
→ 1	0.97
CCOc1ccc2nc(Nc3nc(C)c(Cc4ccc(C)cc4)c(=O)[nH]3)nc(C)c2c1
→ 0.98	-0.48
Cc1cccc(CN2CCN(CC(=O)NC(C)c3ccccc3)C2=O)c1 (configuration not stated)
→ 1	-0.16
CC(C)CCNC(=O)c1cccc2c1C(=O)N(C1CCCCC1)C2
→ 1	1.4
CCCSc1oc(-c2ccc(F)cc2)nc1S(=O)(=O)c1ccccc1
→ 1	0.34
CCN1C(=O)c2ccccc2Sc2ccc(C(=O)NCC3CCCO3)cc21 (configuration not stated)
→ 0.99	-0.17
COc1ccc(-c2cc(C(=O)NCc3cn(C)nc3C)c3ccccc3n2)cc1OC
→ 1.1	3.5
O=C(Nc1ccccc1F)C(NS(=O)(=O)c1cccs1)c1ccccc1 (configuration not stated)
→ 0.98	-0.019
COC(=O)c1ccc(N2C(=O)c3ccc(C(=O)Nc4ccccc4OC)cc3C2=O)cc1
→ 1.5	2
CCCCOc1ccc(Nc2cc(C)nc3ccc(Cl)cc23)cc1
→ 0.87	-0.15
O=C(Nc1cccc(Cl)c1)c1cccc(S(=O)(=O)N2CCCCCC2)c1
→ 1.1	0.078
Cc1ccc(CNC(=O)CC2Nc3ccccc3NC2=O)cc1 (configuration not stated)
→ 0.99	-0.29
FC(F)(F)c1ccc(CSc2ncnc3ccccc23)cc1
→ 1.3	7.1

# Full records as entered above.
# `CCCSc1oc(-c2ccc(F)cc2)nc1S(=O)(=O)c1ccccc1` is listed as CBX7 inh = 1; CBX7 inh z-score = 0.34
# `O=C(Nc1cccc(Cl)c1)c1cccc(S(=O)(=O)N2CCCCCC2)c1` is listed as CBX7 inh = 1.1; CBX7 inh z-score = 0.078

# (continued)
# Screens in order – CBX7 inh	CBX7 inh z-score
Cc1c(C(=O)Nc2cccc(Cl)c2)sc2ncn(CC(=O)N3CCCC(C)C3)c(=O)c12 (configuration not stated)
→ 0.92	-0.54
CCc1nnc(NC(=O)c2cccc(Cl)c2Cl)s1
→ 1.1	0.34
Cc1sc(NC(=O)c2cc(Cl)cc(Cl)c2)nc1-c1ccccc1
→ 1	0.16
Cc1ccc(-c2cc3ncc4c(n3n2)CCCC4=O)cc1
→ 1	0.25
O=C(Nc1c(F)cccc1F)N(Cc1cccnc1)Cc1ccccc1Cl
→ 0.93	-0.074
Cc1cc(C)cc(NC(=O)N2CCC(N3CCCCC3)CC2)c1
→ 1	0.12
Cc1oc(-c2ccccc2Cl)nc1CSCC(=O)NC(C)(C)C
→ 1	0.28
CCOc1ccc(-n2c(-c3ccc(C)cc3)nc3c(cnn3-c3ccccc3)c2=O)cc1
→ 0.72	-11
Cc1ccc(C(=O)c2oc3ccccc3c2NC(=O)COc2cc(C)ccc2C(C)C)cc1
→ 1.4	0.89
CCOc1ccc(OCC)c(Nc2nnc(-c3cc4c(CO)cnc(C)c4oc3=O)s2)c1
→ 1	0.18
COc1ccc(-n2c(C)nc3cc(C(=O)NC4CCCC4)ccc32)cc1
→ 0.94	-1.7
CCn1c(/C=C/c2c(C)n(C)c3ccc(OC)cc23)nc2ccccc2c1=O
→ 1	1.1
Cc1nn(-c2ccccc2)c2sc(C(=O)Nc3cc(C(F)(F)F)ccc3Cl)cc12
→ 1.1	0.12
CCOc1ccc(-c2nc(CSCC(=O)NCc3ccc(F)cc3)c(C)o2)cc1
→ 0.92	-0.53
CC(C)Cn1cc(C(=O)N(C)Cc2ccccc2)c2c3ccccc3n(C)c2c1=O
→ 1.2	3.3
Cc1ccc(NC(=O)Cn2cnc3c(nnn3Cc3ccc(F)cc3)c2=O)cc1Cl
→ 0.82	-2.9
Cc1nc2c(C(=O)NCc3ccccc3)c[nH]n2c(=O)c1Cc1ccccc1Cl
→ 1.1	0.93
CC1CCCC(C)N1CCCNC(=O)c1cc2c(s1)-c1ccccc1OC2 (configuration not stated)
→ 1.4	5.5
Cc1ccc(CNC(=O)C2CCC(CNS(=O)(=O)c3cccc4cccnc34)CC2)cc1 (configuration not stated)
→ 1	0.3
CCOc1ccccc1CN1C(=O)c2ccccc2C1C(=O)NCCc1ccccc1 (configuration not stated)
→ 0.86	-0.49
Cc1cccc(N2CCN(CCNC(=O)CN3C(=O)CCSc4ccccc43)CC2)c1C
→ 0.96	-1.6
COc1ccccc1CC1CC(=O)N(c2cc(C)ccc2C)C1=O (configuration not stated)
→ 0.97	-0.19
CCC(=O)Nc1cc(-c2nnc(OC)c3ccccc23)ccc1N1CCOCC1
→ 1.6	2.2
CCOc1ccc2nc(NC(=O)C3CCN(S(=O)(=O)c4cccnc4)CC3)sc2c1
→ 0.98	-0.42
Cc1cc(C)nc(Nc2n[nH]c(-c3ccccc3C)n2)n1
→ 1	0.056
O=C(Nc1ccc(OC(F)(F)F)cc1)C1CC(c2ccc(F)cc2)=NO1 (configuration not stated)
→ 1	0.75
CC(=O)C1C(c2ccc(C)cc2)c2c(n[nH]c2C)CC1(C)O (configuration not stated)
→ 0.95	-1.1
COc1ccc(N2C(=O)CC(NCCc3ccccc3F)C2=O)cc1 (configuration not stated)
→ 1.2	1.7
CCC(C)NC(=O)C1(C)CCC(=O)N1CCc1ccc(OC)c(OC)c1 (configuration not stated)
→ 1	0.36
O=C(Nc1cccc(Cl)c1)c1cccc(N2C(=O)c3ccccc3C2=O)c1
→ 1	0.71
CN(C)CCNC(=O)COc1ccc2c(c1)C(=O)CC(C)(C)O2
→ 0.97	-0.29
CCOc1ccc(-c2cc(C(=O)N3CCOCC3)c3ccccc3n2)cc1
→ 0.96	-0.77
COc1cccc(Nc2nc3ccccc3nc2NS(=O)(=O)c2ccc(Br)cc2)c1
→ 0.74	-7.4
Cc1nc2ccc(C(=O)Nc3nncs3)cc2s1
→ 1.1	1.1
CCN(CC)CCOc1ccccc1-c1[nH]c2ccccc2c1Cc1ccccc1
→ 0.96	-0.6
O=C(Nc1ccc(F)c(Cl)c1)C1CCCN(S(=O)(=O)c2cccc3cccnc23)C1 (configuration not stated)
→ 1	0.83
CCOc1ccc(NC(=O)C2CCN(S(=O)(=O)c3cccs3)CC2)cc1
→ 0.95	-1.1
COc1ccc(CCNc2nnc(Cc3cccnc3)c3ccccc23)cc1OC
→ 1.1	2.4
CC(C)CCNC(=O)c1c[nH]c2ccc(S(=O)(=O)N3CCOCC3)cc2c1=O
→ 1.1	1.6
Cc1nc2ccc(S(=O)(=O)NC(C(=O)NC3CCCCCCC3)C(C)C)cc2s1 (configuration not stated)
→ 1.1	1.4
O=C(CSc1nnc(Cc2ccccc2)o1)Nc1nc(-c2ccccc2)cs1
→ 1	0.62
O=C(CN1C(=O)COc2ccc(S(=O)(=O)N3CCOCC3)cc21)NCCCN1CCOCC1
→ 1	0.5
O=C(Nc1ccc(-c2nc3ccccc3o2)c(O)c1)c1cccc(F)c1
→ 1.1	2.2
CCN(CCCNC(=O)CN1C(=O)CC(C)(C)S(=O)(=O)c2ccccc21)Cc1ccccc1
→ 1.1	3.5
COc1ccc(CNC(=O)c2cc(Nc3ccc(OC)cc3OC)nc3ccccc23)cc1
→ 0.76	-1
CCc1cc2c(NCCc3ccccc3)ncnc2s1
→ 1	0.2
C#CCN1C(=O)C(O)(CC(=O)c2ccc(C)cc2)c2ccccc21 (configuration not stated)
→ 0.86	-0.24
Cc1ccc2cc(CCNS(=O)(=O)c3ccc(F)cc3)c(=O)[nH]c2c1
→ 0.9	-1.2
Cc1cccc(N2CCN(C(=O)CN3CC(c4ccccc4)CC3=O)CC2)c1C (configuration not stated)
→ 1	0.94
Cc1ccccc1-c1cc(C(=O)Nc2nn[nH]n2)c2ccccc2n1
→ 1	-0.0036

# Given as labelled records: four of the compounds above.
molecule: COc1ccc(CNC(=O)c2cc(Nc3ccc(OC)cc3OC)nc3ccccc23)cc1
  CBX7 inh = 0.76	CBX7 inh z-score = -1
molecule: CCc1cc2c(NCCc3ccccc3)ncnc2s1
  CBX7 inh = 1	CBX7 inh z-score = 0.2
molecule: C#CCN1C(=O)C(O)(CC(=O)c2ccc(C)cc2)c2ccccc21 (configuration not stated)
  CBX7 inh = 0.86	CBX7 inh z-score = -0.24
molecule: Cc1ccc2cc(CCNS(=O)(=O)c3ccc(F)cc3)c(=O)[nH]c2c1
  CBX7 inh = 0.9	CBX7 inh z-score = -1.2

# Continued.
# Screens in order – CBX7 inh	CBX7 inh z-score
COC(=O)c1c[nH]n2c(NC3CCC(C)CC3)c(-c3ccc(Cl)cc3)nc12 (configuration not stated)
→ 0.33*	-0.75*
CN(C(=O)Cn1ncc2c1-c1ccccc1OC2)c1ccccc1
→ 0.99	-0.26
CCOc1cc(C2CC(=O)Nc3cc4c(cc32)OCCO4)ccc1O (configuration not stated)
→ 0.96	-0.051
COc1ccc2c(c1)c(=O)c(S(=O)(=O)c1ccccc1)cn2CC(=O)Nc1ccccc1C
→ 0.98	-0.25
CCCCNC(=O)CCC(=O)Nc1ccc2nc(N3CCCCC3)cc(C)c2c1
→ 0.63	-16
CCC(C(=O)Nc1ccccc1OC)n1c(SCc2ccccc2F)nc2ccncc21 (configuration not stated)
→ 0.99	-0.2
Cc1cccc(C(=O)Nc2sc3c(c2C(=O)N2CCCCC2)CCCC3)c1
→ 0.92	-0.98
COC(=O)c1c(NC(=O)c2cc(Cl)ccc2OC)sc(C)c1C
→ 1.1	0.16
Cc1nc2c(-c3ccc(F)cc3)c(C)nn2c(C)c1CCC(=O)NC(C)c1cccs1 (configuration not stated)
→ 1.2	3.7
CCCCOc1ccc(C(=O)Nc2ccccc2-c2nc3ccccc3o2)cc1
→ 1	0.36
COc1ccc(Nc2cc(C(=O)NCCN(C)Cc3ccccc3)c3ccccc3n2)c(OC)c1
→ 0.76	-3.7
Cc1ccc2c(c1)-c1c(cnn1CC(=O)NCCN1CCN(Cc3ccccc3)CC1)CO2
→ 1	-0.048
CC1CCCCN1S(=O)(=O)c1ccc2[nH]c(=O)cc(C(=O)NC3CCCCCC3)c2c1 (configuration not stated)
→ 0.85	-1.8
CCOCCCNC(=O)C(NC(=O)c1ccccn1)c1ccc(C)cc1 (configuration not stated)
→ 1	0.031
c1ccc(Cn2c3c(c4ccccc42)CCc2nonc2-3)cc1
→ 1.2	5.3
Cc1ccc(-c2nnc(NC(=O)c3ccccc3)s2)cc1
→ 1.2	1.5
O=C1NC(c2ccc(C(F)(F)F)cc2)=CCN1c1ccccc1O
→ 0.99	-0.4
COCCNC(=O)Cn1ncc2c1-c1ccccc1OC2
→ 1	0.063
CC(=O)N1CCc2cc(S(=O)(=O)NC(C(=O)N3CCC4(CC3)OCCO4)C(C)C)ccc21 (configuration not stated)
→ 1	1.8
CCS(=O)(=O)c1ccc(O)c(NC(=O)COc2ccc(C)cc2)c1
→ 0.98	-0.53
Oc1ccccc1CNc1nc2c(s1)CCc1ccccc1-2
→ 1.1	0.95
Cc1ccc(Nc2nc(-c3c(C)nc4ccccn34)cs2)c(C)c1
→ 0.72	-3.3
COc1ccc(C)cc1N(C)C(=O)Cn1nc(Cc2ccncc2)c2ccccc2c1=O
→ 0.97	-1
CCc1ccc(CNC(=O)c2ccc3c(c2)ncn3C2CCCC2)cc1
→ 0.86	-1.6
Cc1oc(-c2cccc(F)c2)nc1CSCC(=O)NCc1ccccc1
→ 0.94	-1.1
O=C(Cn1nc(Cc2cccnc2)c2ccccc2c1=O)Nc1ccc2c(c1)OCCO2
→ 0.95	-1.1
COc1ccc(-n2nnc3c(=O)n(Cc4cccc(C(F)(F)F)c4)cnc32)cc1
→ 1.1	1.3
COc1ccc(CNC(=O)c2cnn3c(C)c(Cc4ccccc4C)c(C)nc23)cc1
→ 1	1
COc1ccc(-c2nc3ncc(-c4ccccc4)nn3c2C)cc1
→ 1.3	12
CCCSc1oc(-c2ccc(C)cc2)nc1S(=O)(=O)c1ccccc1
→ 1.1	3.7
Clc1ccc(-c2noc(CC3CCCCC3)n2)cc1
→ 1.8	13
O=C(Cn1ncc2c1-c1ccccc1OC2)NCCCN1CCN(c2cccc(Cl)c2)CC1
→ 0.93	-0.87
CC1CC(C)CN(C(=O)Cc2c(C(=O)O)[nH]c3ccc(Cl)cc23)C1 (configuration not stated)
→ 1.1	3.3
Cc1ccc(-n2cc(-c3ccc(Cl)cc3)nc2S(=O)(=O)CC(=O)Nc2ccc(F)cc2)cc1
→ 0.78	-2.2
O=C(NC1CCCC1)c1ccc2c(c1)ncn2-c1ccc(F)cc1F
→ 0.92	-0.97
COc1ccc(-n2ccnc2SCC(=O)Nc2ccc(OC(F)(F)F)cc2)cc1
→ 1	0.011
CCOCCCNC(=O)CC1Sc2ccccc2NC1=O (configuration not stated)
→ 1.1	1.5
COc1ccc(-c2nn(C)c3sc(C(=O)NCc4ccc5c(c4)OCO5)cc23)cc1OC
→ 1	0.8
COc1cccc(-c2nn(C)c3sc(C(=O)N4CCN(c5cccc(Cl)c5)CC4)cc23)c1
→ 0.87	-1.7

# This is a subset; the hit share may differ from the screen's.
